High-throughput results (PubChem)
LASV entry inh – Lassa virus entry inhibition; Lassa virus pseudotype entry inhibition, cell reporter; control for the full effect not named in the record; Potency, µM (titrated, usually from 37.9 µM), inactives show at the top dose activity change, negative = inhibition, hits mostly inhibitors; 1.2% of 300,000 active; AID 540256; active means well fitted inhibition curve with a large enough effect; inconclusive means small, poorly fitted or top-dose-only effect, or effect the other way; inactive means flat fitted curve, though single readings scatter; tested in HEK293 cells; also: % is scaled to controls: 0 for no effect and ±100 for the full control effect; nearly all actives have a fitted effect of over 50% in size; luciferase read-out
NS1 inh – blocks influenza NS1 protein function; S. cerevisiae slowed by influenza A NS1, growth recovery by OD600; Potency, µM (doses to about 46.1 µM), inactives show at the top dose activity, positive = more growth; 0.4% of 270,000 active; also: actives are rising curves; nearly all actives have a fitted effect of over 50% in size
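In this qHTS, NS1 from influenza A is expressed in budding yeast, where it slows growth. Cells are switched from glucose to 2% galactose medium (pH 6.0, -URA), treated with compound, and growth recovery is read at OD600.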
RE007 growth inh – less growth of the S. pombe RE007 Vpr strain; S. pombe RE007 Vpr strain, BacTiter-Glo ATP luminescence, 24 h; control for the full effect not named in the record; Potency, µM (top dose mostly 92.2 µM), for inactives: at the top dose activity change, negative = less growth; 0.21% of 360,000 active; active = well fitted falling curve with a large enough effect; inconclusive = small, poorly fitted or top-dose-only effect; inactive = no such curve, though single readings can be large or run the other way;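 also: % is scaled to controls: 0 for no effect and ±100 for the full control effect; nearly all actives have a fitted effect of over 50% in size; the assay follows cell death caused by Vpr and the record does not say whether a fall means rescue or toxicity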
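Fission yeast RE007 carrying one integrated HIV-1 vpr copy, seeded at OD 0.01 in PMG+AL medium with 23 nL pinned compound. Grown 24 h at 30 degrees; viability read by BacTiter-Glo luminescence after 5 min.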
Marburg entry inh – blocks Marburg virus binding to or entry into cells; Marburg virus pseudotyped entry inhibition, cell reporter; control for the full effect not named in the record; about a third of the inactives were read at about 46 µM; Potency, µM (series often up to 37.8 µM), without a hit: top-dose activity change, negative = inhibition, usual class: inhibitors; 1.8% of 300,000 active; AID 540276; active = well fitted inhibition curve with a large enough effect; inconclusive = small, poorly fitted or top-dose-only effect, or effect the other way; inactive = flat fitted curve, though single readings scatter; tested in HEK293 cells; about a fifth of its hits are not listed in these tables; also: % is scaled to controls: 0 for no effect and ±100 for the full control effect; luciferase read-out
Cruzain inh Det – inhibitors of Trypanosoma cruzi cruzain with detergent; purified cruzain, Z-FR-AMC fluorescence, 0.01% Triton; Potency, µM, without a hit: max response, negative = inhibition, actives largely listed as inhibitors; 0.43% of 200,000 active; AID 1478; active = well fitted curve in the direction sought with a large enough effect; inconclusive = small, poorly fitted or top-dose-only effect, or another doubt; inactive = no such curve, though single readings can be large; an effect the other way counts as inactive or inconclusive;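 also: plate controls were neutral wells for no effect and buffer without enzyme for full effect; nearly all actives have a fitted effect of over 40% in size; top concentration of the series not given in the record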
Target sequence (P25779 123-467 limits assumed): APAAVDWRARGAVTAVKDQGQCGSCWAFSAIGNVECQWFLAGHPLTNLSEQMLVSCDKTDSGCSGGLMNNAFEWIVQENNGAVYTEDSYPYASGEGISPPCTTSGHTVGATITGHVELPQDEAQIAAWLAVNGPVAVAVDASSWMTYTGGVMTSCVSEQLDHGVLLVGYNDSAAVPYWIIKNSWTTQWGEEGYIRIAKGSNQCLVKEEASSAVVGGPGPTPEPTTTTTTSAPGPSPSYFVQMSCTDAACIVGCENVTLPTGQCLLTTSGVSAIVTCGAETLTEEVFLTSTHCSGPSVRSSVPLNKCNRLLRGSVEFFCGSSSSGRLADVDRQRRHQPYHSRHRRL
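Detergent-containing run (0.01% Triton X-100) in acetate buffer pH 5.5 with 5 mM DTT: enzyme at 1.5 nM final, 15 min compound preincubation at room temperature, then 2 uM Z-FR-AMC substrate. Activity taken as 60 s fluorescence increase at 360/450 nm.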
StopGo reporter – lowers the luciferase signal of an FMDV 2A StopGo reporter; human cells with a luciferase reporter of 2A StopGo recoding; control for the full effect not named in the record; Potency, µM (highest dose often 57.9 µM), inactives show at the top dose signal change, negative = less light; 1.2% of 410,000 active; active = well fitted falling curve with a large enough effect; inconclusive = small, poorly fitted or top-dose-only effect; inactive = no such curve, though single readings can be large or run the other way; tested in HEK293T cells; also: % is scaled to controls: 0 for no effect and ±100 for the full control effect; nearly all actives have a fitted effect of over 45% in size; luciferase light after 4 h
SARS PLpro yeast – SARS-CoV PLP inhibition in yeast. S. cerevisiae expressing SARS-CoV PLpro, growth rescue; control for the full effect not named in the record. Potency, µM (highest dose often 32.9 µM), without a hit: top-dose activity, positive = growth rescue. 0.19% of 330,000 active. AID 485353; also: 0% is about no effect; nearly all actives have a fitted effect of over 55% in size; growth read by luminescence after 48 h
Cruzain inh noDet – blocks cruzain activity in detergent-free assay; Potency, µM, for inactives: max response, negative = inhibition, actives largely listed as inhibitors; purified cruzain, Z-FR-AMC fluorescence, no detergent; P25779; 2.3% of 200,000 active; active = well fitted curve in the direction sought with a large enough effect; inconclusive = small, poorly fitted or top-dose-only effect, or another doubt; inactive = no such curve, though single readings can be large; an effect the other way counts as inactive or inconclusive;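 also: plate controls were enzyme without inhibitor for no effect and buffer without enzyme for full effect; nearly all actives have a fitted effect of over 40% in size; top concentration of the series not given in the record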
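Detergent-free condition (0.00005% Triton X-100) in acetate buffer pH 5.5 with DTT. 1.5 nM enzyme and compound were pre-mixed 15 min, then 2 uM Z-FR-AMC substrate added; reaction progress from fluorescence change between first and third reads (60 s).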
Numbers without * were called inactive; ? = inconclusive; nt = not tested or not shown; [ ] = dose if it differs, or a comment. Unless noted, calls follow the shape of the dose curve; as a rule, active means well fitted rising curve with a large enough effect; inconclusive means small, poorly fitted or top-dose-only effect; inactive means no such curve, though single readings can be large or run the other way. Potency is read from the fitted curve at half-maximal effect.

Each structure is followed by: LASV entry inh	NS1 inh	RE007 growth inh	Marburg entry inh	Cruzain inh Det	StopGo reporter	SARS PLpro yeast	Cruzain inh noDet
1	COc1cccc(N2CCN(CC(=O)NC3=Nc4ccccc4N=C(C)C3c3ccccc3)CC2)c1 (stereo not drawn)
→ ?	-9%	2%	?	nt	-25%	-2%	nt
2	CCCc1cc(C(=O)N2CCCC(C(=O)c3cccc4ccccc34)C2)n(C)n1 (stereo not drawn)
→ nt	1%	3%	nt	nt	-14%	0%	nt
3	O=C(Cc1ccccc1)NC(Cc1ccc(Cl)cc1)C(=O)O (stereo not drawn)
→ -2%	1%	-10%	6%[46.1 µM]	nt	-3%	0%	nt
4	CC(C)Cc1ccc(C(C)NC(=O)c2ccc(=O)[nH]c2)cc1 (stereo not drawn)
→ 13%[46.1 µM]	nt	-1%	?	nt	-28%	-1%	nt
5	CCn1c(=N)n(CC(O)COc2cccc(C)c2)c2ccccc21 (stereo not drawn)
→ 0%	3%	-13%	?	2.0%	?	?	6%
6	Cc1nn(Cc2ccc(F)cc2)c(Cl)c1/C=N/NC(=O)c1ccccc1
→ ?	-4%	-3%	1%[46.1 µM]	nt	17%	0%	nt
7	Cc1cc2nc3c(c(=O)n2[nH]1)CCCC3
→ 0%	9%	-7%	3%	2.0%	6%	6%	-3%
8	O=C(COc1ccccc1)Nc1ccc(N2CCCCC2)cc1
→ -3%	nt	-20%	?	nt	10%	1%	nt
9	COc1ccc(-c2cn3cccnc3n2)cc1NC(=O)Nc1ccc(Cl)cc1
→ -15%[46.1 µM]	nt	nt	nt	-5.3%	5%	nt	?
10	O=C(O)CCCNc1c(C(=O)Nc2ccc(Cl)cc2)cc([N+](=O)[O-])cc1[N+](=O)[O-]
→ -5%	nt	14%	-17%[46.1 µM]	nt	-1%	0%	nt
11	COc1ccc(NC(=O)c2ccc(C(=O)c3ccccc3)o2)cc1
→ ?	-10%	-5%	-3%[46.1 µM]	-2.8%	9%	3%	4%
12	COc1ccc(/C=N/N=C2\SCC(=O)N2c2c(C)n(C)n(-c3ccccc3)c2=O)cc1OC
→ 10%	?	2%	-2%	-5.7%	-14%	4%	7%
13	Cc1cccc(NC(=O)CNC(=O)COc2ccc(-c3ccc(C#N)cc3)cc2)c1C
→ 10%	19%	-7%	?	-4.1%	-9%	0%	?
14	COc1ccccc1CNC(=O)CN(c1cccc([N+](=O)[O-])c1)S(C)(=O)=O
→ nt	-9%	-11%	nt	nt	10%	0%	nt
15	COc1ccc(C(=O)c2cc([N+](=O)[O-])ccc2N2CCCC2)cc1
→ ?	7%	-18%	?	-11%	?	-12%	10%

Only SARS PLpro yeast, StopGo reporter and Cruzain inh noDet, for some of the entries so far:
| item | Molecule | SARS PLpro yeast | StopGo reporter | Cruzain inh noDet |
| --- | --- | --- | --- | --- |
| 8 | O=C(COc1ccccc1)Nc1ccc(N2CCCCC2)cc1 | 1% | 10% | nt |
| 9 | COc1ccc(-c2cn3cccnc3n2)cc1NC(=O)Nc1ccc(Cl)cc1 | nt | 5% | ? |
| 10 | O=C(O)CCCNc1c(C(=O)Nc2ccc(Cl)cc2)cc([N+](=O)[O-])cc1[N+](=O)[O-] | 0% | -1% | nt |
| 11 | COc1ccc(NC(=O)c2ccc(C(=O)c3ccccc3)o2)cc1 | 3% | 9% | 4% |
| 12 | COc1ccc(/C=N/N=C2\SCC(=O)N2c2c(C)n(C)n(-c3ccccc3)c2=O)cc1OC | 4% | -14% | 7% |

Later entries:
Each structure is followed by: LASV entry inh	NS1 inh	RE007 growth inh	Marburg entry inh	Cruzain inh Det	StopGo reporter	SARS PLpro yeast	Cruzain inh noDet
16	Cc1cc(=O)oc2c3c(cc(OCC(=O)NCc4ccncc4)c12)OC(C)(C)CC3
→ nt	-13%	-11%	nt	nt	-13%	2%	nt
17	COc1ccccc1N(C(=O)Cn1nnc(-c2ccc(C)o2)n1)C(C(=O)NC1CCCC1)c1ccncc1 (stereo not drawn)
→ -6%[46.1 µM]	2%	-18%	?	nt	10%	2%	nt
18	Cc1ccc(S(=O)(=O)Nc2cc(-c3ccccc3)nn2C)cc1
→ 13%[46.1 µM]	2%	6%	11%[46.1 µM]	nt	2%	0%	nt
19	COc1ccc(OC)c(CNC(=O)Cc2c(C(=O)O)[nH]c3ccccc23)c1
→ -14%	5%	-6%[3.69 µM]	?	1.4%	-1%	-1%	-4%
20	Cc1cc(C)c(C2=Nn3c(C)nnc3SC2C)cc1C (stereo not drawn)
→ -1%[46.1 µM]	-17%	10%	-15%[46.1 µM]	nt	0%	-3%	nt
21	CCc1ccccc1NC(=O)CNC(=O)c1ccc(-n2cncn2)c([N+](=O)[O-])c1
→ ?	nt	-4%	-18%	nt	-10%	-5%	nt
22	CC1=NN(C(=O)c2ccoc2C)C(O)(C(F)(F)F)C1 (stereo not drawn)
→ 5%	0%	-10%	4%[46.1 µM]	nt	33%[activator]	0%	nt
23	COc1ccc(NC(=O)c2cc(-c3ccc4c(c3)OCO4)on2)cc1
→ 1%	1%	13%	?	nt	2%	2%	nt
24	Cc1onc(-c2ccccc2)c1C(=O)N1CCc2ccccc21
→ 5%	-32%	3%	?	0.3%	nt	2%	-4%
25	COc1ccc(Cl)cc1-c1nc(-c2ccc(NC(=O)c3cccs3)cc2)no1
→ ?	-6%	-8%	?	-5.8%	11%	2%	?
26	Cc1ccc(NC(=S)NNC(=S)NC2CCCCC2)cc1
→ ?	nt	8%	26%	nt	91%[activator]	2%	nt
27	O=C(Nc1ccc(N2CCOCC2)c(Cl)c1)c1cccnc1
→ ?	-11%	5%	?	-2.2%	37%[activator]	-3%	8%
28	CC(C)Oc1cccc(C(=O)C2CCCN(Cc3cccn3-c3cccnc3)C2)c1 (stereo not drawn)
→ nt	2%	-10%	nt	nt	-21%	12%	nt
29	COc1ccc(NC(=O)CNS(=O)(=O)c2ccc(Cl)cc2)cc1
→ 16%	-2%	-2%	0%	-3.6%	-20%	-18%	-9%
30	O=C(CCCOc1ccc(Cl)cc1Cl)N1CCCc2ccccc21
→ 1%	-87%	-2%	-1%	-2.7%	-21%	-11%	19%
31	COc1ccc(-n2c(O)c(C(C)=NCCc3c[nH]c4ccccc34)c(=O)[nH]c2=O)cc1
→ nt	-2%	9%	nt	nt	-16%	-1%	nt
32	COC(=O)c1ccc(C2NC(=O)CCC2[N+](=O)[O-])cc1 (stereo not drawn)
→ 7%[46.1 µM]	1%	28%	8%[46.1 µM]	nt	-17%	2%	nt
33	Cc1occc1C(=O)NNC(=O)C1CCCCC1
→ 10%	20%	nt	?	-4.9%	-11%	-6%	14%
34	N#Cc1c(N)c(C(=O)c2ccc(Cl)cc2)n2c1CCC2
→ -1%	3%	-18%	-23%	1.5%	-19%	2%	1%
35	Cc1ccc(C)c(C(=O)O/N=C(\N)c2ccc(Br)cc2)c1
→ ?	-67%	?	?	4.1%	-6%	-38%	5%
36	Cc1cc(C)n2nc(CNC(=O)c3ccccc3Cl)nc2n1
→ 17%[46.1 µM]	nt	nt	-8%[46.1 µM]	-2.8%	-6%	nt	-11%
37	Fc1ccc(Cn2nnnc2CN2CCC(n3nnc4cc(C(F)(F)F)ccc43)CC2)cc1
→ nt	5µM*	-1%	nt	nt	44%[activator]	1%	nt
38	Cc1nn(CCC(=O)NNC(=S)Nc2ccc(F)cc2)c(C)c1Br
→ ?	5%	5%	-3%	-4.1%	-8%	-1%	0%
39	CN(C)CCCn1c(SCc2ccc(Cl)cc2)nnc1-c1ccncc1
→ nt	-5%	4%	nt	nt	-4%	-7%	nt
40	CCOc1cc(/C=C2\NC(=O)NC2=O)cc([N+](=O)[O-])c1O
→ nt	6%	3%	4%[46.1 µM]	nt	-15%	-4%	nt
41	COc1ccc(S(=O)(=O)Nc2cc(S(=O)(=O)c3ccccc3)c(O)cc2C)cc1
→ 1%[46.1 µM]	13%	-16%	-1%[46.1 µM]	nt	43%[activator]	1%	nt
42	COc1ccc(/C=N/NC(=O)c2ccc3nc[nH]c3c2)c(OC)c1OC
→ 3%	3%	5%	10%[46.1 µM]	nt	-10%	-1%	nt
43	CCOc1ccc(/C=C/C(=O)Oc2ccc(OC)cc2)cc1
→ 12%	16%	5%	9%	nt	-7%	4%	nt
44	O=C(c1ccccc1)c1ccccc1C(=O)N1CCOCC1
→ -10%	19%	4%	1%	-2.1%	9%	3%	-24%
45	CCc1ccc(-c2nnn(Cc3nn[nH]n3)n2)cc1
→ 0%	3%	-6%	14%	-2.8%	12%	1%	-10%
46	O=C(N/N=C/c1ccc(OCc2ccccc2)cc1)c1ccncc1
→ nt	-1%	-6%	nt	nt	10%	-1%	nt
47	Cc1ccc(-c2nnc(SCC(N)=O)n2C)cc1
→ ?	-6%	-21%	13%[46.1 µM]	nt	-4%	-1%	nt
48	CN(C(=O)CSc1cn(CC(=O)N2CCCCC2)c2ccccc12)c1ccccc1
→ -1%[46.1 µM]	nt	nt	nt	-2.0%	0%	nt	14%
49	CCCCn1c(=NC(=O)c2cc3ccccc3o2)c(C(=O)OCC)cc2c(=O)n3ccccc3nc21
→ -3%[46.1 µM]	nt	nt	?	24%	33%[activator]	nt	?
50	CS(=O)(=O)N(CC(=O)N1CCN(c2ccccc2)CC1)c1ccc(Cl)c(C(F)(F)F)c1
→ 2%	7%	22%	-5%	-4.7%	?	3%	?
51	Cc1ccc(S(=O)(=O)N2CCC(C(=O)O)CC2)cc1C(=O)O
→ 8%	2%	0%	-3%	5.7%	-16%	1%	-10%

Quoted at random: two compounds from above.
Each structure is followed by: LASV entry inh	NS1 inh	RE007 growth inh	Marburg entry inh	Cruzain inh Det	StopGo reporter	SARS PLpro yeast	Cruzain inh noDet
49	CCCCn1c(=NC(=O)c2cc3ccccc3o2)c(C(=O)OCC)cc2c(=O)n3ccccc3nc21
→ -3%[46.1 µM]	nt	nt	?	24%	33%[activator]	nt	?
47	Cc1ccc(-c2nnc(SCC(N)=O)n2C)cc1
→ ?	-6%	-21%	13%[46.1 µM]	nt	-4%	-1%	nt
